Calb FLC: C. albicans growth inhibition with fluconazole, primary screen, CaCi-2 strain, Alamar Blue fluorescence. C. albicans CaCi-2 (fluconazole-resistant clinical isolate) + fluconazole, 48 h. growth inhibition, % (no concentration beside the values). 300,000 compounds, 0.57% hits. AID 1979, 2009;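 active = most replicates above 75%; inconclusive = exactly half above 75%; inactive = most below 75%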;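 note: all wells also contain fluconazole at 8 µg/ml as a sub-toxic cotreatment; 0% = median of DMSO wells and 100% = median of geldanamycin control wells; wells of about 8 µL received 7.5 nL stock; the first replicate is given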
FGF22 binding: binders of human FGF22 protein, primary screen, FGF22 synaptogenesis inhibitor project, biophysical, thermal shift, single point; 340,000 compounds, 1.5% hits; AID 651658, 2012; calls only at 9.99 µM; recombinant FGF22 thermal shift, SYPRO orange fluorescence; percent of sucrose octasulfate shift, DMSO zero;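 active = melting point raised past a set limit in the mean and every replicate; inconclusive = no clear call; three in four hits are not shown here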
Target sequence (Q9HCT0 whole entry, looked up): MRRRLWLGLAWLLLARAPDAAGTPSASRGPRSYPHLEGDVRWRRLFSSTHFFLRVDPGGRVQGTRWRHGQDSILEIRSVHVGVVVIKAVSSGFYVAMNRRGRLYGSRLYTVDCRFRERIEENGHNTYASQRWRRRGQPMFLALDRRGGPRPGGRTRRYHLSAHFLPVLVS
RanGTP-Imp inh: inhibitors of RanGTP-importin-beta interaction, primary screen, biochemical, FRET, CFP-Ran, YFP-importin-beta, homogeneous; 300,000 compounds, 1.1% hits; AID 2216, 2009; inhibition, % (no concentration beside the values); cell-free CFP-Ran/YFP-importin-beta FRET ratio;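 active = most replicates above 15%; inconclusive = exactly half above 15%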;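 note: 0% = DMSO wells and 100% = Ran loaded with GDP instead of GTP; wells of about 40 µL received 100 nL stock; the first replicate is given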
T cruzi inh: inhibitors of intracellular T. cruzi growth, primary screen, luminescence, NIH3T3 host cells; T. cruzi beta-gal in NIH3T3, 90 h; inhibition, % (no concentration beside the values); 300,000 compounds, 1.4% hits;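 active = mean inhibition across valid replicates above about 55%, limit read from the data; inconclusive = mean below that limit but half or more replicates reach it; inactive = mean below it, under half of replicates reach it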;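 note: signal also drops with host cell toxicity which is not excluded here; 0% = plate median of DMSO wells and 100% = zero luminescence signal; higher percent means less beta-gal luminescence so fewer parasites; stock transfer was 50 nL into about 50 µL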
ALR inh: inhibitors of human ALR sulfhydryl oxidase, primary screen, biochemical, H2O2 detection, HRP-luminol luminescence, single point; inhibition, % (concentration not given with the values); FAD-linked sulfhydryl oxidase ALR (Homo sapiens), P55789; AID 485317, 2010; 290,000 compounds, 3.8% hits; purified ALR, DTT oxidation;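 active = mean and each replicate at 75% or more; inconclusive = only one of the two met; inactive = neither met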;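 note: stock transfer was 7.5 nL into about 7.5 µL; 0% = neutral wells and 100% = wells with inactivated enzyme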
Target sequence (P55789 whole entry, looked up): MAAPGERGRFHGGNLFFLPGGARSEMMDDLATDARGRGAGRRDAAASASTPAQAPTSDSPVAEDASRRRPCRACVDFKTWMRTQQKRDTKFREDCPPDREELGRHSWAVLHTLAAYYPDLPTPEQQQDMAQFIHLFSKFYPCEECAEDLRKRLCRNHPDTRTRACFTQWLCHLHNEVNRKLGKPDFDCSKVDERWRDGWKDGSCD
AF4-AF9 inh: inhibitors of AF4 peptide binding to AF9, primary screen, biochemical, AlphaScreen, biotin-AF4 peptide, FLAG-AF9, single point | Protein AF-9 (Homo sapiens), P42568 | inhibition, % at 10 µM | 350,000 compounds, 0.47% hits;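 active = every replicate reaching a set inhibition limit, whatever the replicate mean, cut at about 25% in these data; inconclusive = mean inhibition reaches that limit but some replicates miss it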;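 note: 0% = plate neutral control median and 100% = total signal loss; the record names both 10 and 1 µM as test concentration; the first replicate is given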
Target sequence (P42568 whole entry, looked up): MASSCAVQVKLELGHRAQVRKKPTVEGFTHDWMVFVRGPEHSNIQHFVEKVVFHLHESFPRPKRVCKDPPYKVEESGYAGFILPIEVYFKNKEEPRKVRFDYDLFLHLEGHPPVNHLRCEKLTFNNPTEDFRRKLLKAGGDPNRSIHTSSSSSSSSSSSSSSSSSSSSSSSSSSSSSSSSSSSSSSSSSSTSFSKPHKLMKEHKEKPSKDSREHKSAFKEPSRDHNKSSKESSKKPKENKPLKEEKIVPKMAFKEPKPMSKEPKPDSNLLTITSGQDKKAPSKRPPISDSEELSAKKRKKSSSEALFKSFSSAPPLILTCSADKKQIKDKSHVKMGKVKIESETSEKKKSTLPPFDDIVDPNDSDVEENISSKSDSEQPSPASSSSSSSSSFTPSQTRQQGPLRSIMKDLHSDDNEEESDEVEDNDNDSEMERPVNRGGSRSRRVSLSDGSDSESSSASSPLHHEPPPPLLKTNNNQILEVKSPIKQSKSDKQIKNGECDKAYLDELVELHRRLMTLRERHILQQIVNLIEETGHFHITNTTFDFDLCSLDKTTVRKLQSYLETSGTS
Beta apoptosis: inhibitors of cytokine-induced beta cell apoptosis, primary screen, luminescence; INS-1E cytokine-induced death, ATP luminescence, 48 h; percent of positive-control rescue, neutral wells zero; 300,000 compounds, 0.8% hits; protection from apoptosis, % (test concentration not listed);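 active = all replicates at 75% or more, or half of them and the mean; inconclusive = half reach 75% but not the mean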;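 note: 0% = cytokine-treated negative control wells and 100% = positive control rescue; higher means more ATP so stronger rescue from cytokine killing; wells of about 40 µL received 100 nL stock; the first replicate is given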
rRNA inh HTS: reduced GFP signal of wild-type E. coli, primary screen, bacterial rRNA inhibitor project, GFP/RFP fluorescence, OD600, single point. AID 720706, 2013. E. coli WT GFP vs humanized-ribosome RFP mutants, 24 h; active compounds read low; DMSO median 0, no signal -100. GFP signal change (wild-type ribosome), % (concentration not given with the values). 350,000 compounds, 1.6% hits;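 active = significant combined selectivity score with lowered wild-type GFP, culture density cut under 30%, mutant RFP and density less affected; inactive = any of these conditions unmet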; note: one replicate is shown; some compounds called inactive have numbers as strong as hits
rRNA inh HTS OD600: also measured in rRNA inh HTS; calls as there; OD600 change, %; measured here: OD600 growth;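 optical density of the mix in the first replicate; 0 = DMSO median and -100 = no signal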
rRNA inh HTS RFP: further read-out of rRNA inh HTS, marked with its call; RFP signal change, %; measured here: RFP humanized mutant strains;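 first replicate; 0 = DMSO median and -100 = no signal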
* = called active by the depositor.

How did Nc1nonc1C(=O)NCCNS(=O)(=O)c1ccc(Br)cc1 do in these assays?
Calb FLC: 2; FGF22 binding: inactive; RanGTP-Imp inh: 4.0; T cruzi inh: 4; ALR inh: -3; AF4-AF9 inh: 6.5; Beta apoptosis: 3; rRNA inh HTS: 1; rRNA inh HTS OD600: 3; rRNA inh HTS RFP: -0.6

What do the screens show for `Cc1cc(OCCN2CCCC2)ccc1C(C)C`?
Calb FLC: -28; RanGTP-Imp inh: 4.5; T cruzi inh: 24; ALR inh: -2; Beta apoptosis: -3

Results for CCCNCC1C(Oc2ccc(Cl)cc2Cl)C(=O)N1c1cccc(C)c1C (stereo not given) ?
Calb FLC: -11; FGF22 binding: inactive; RanGTP-Imp inh: 0.9; T cruzi inh: 62*; ALR inh: -20; AF4-AF9 inh: 2.5; Beta apoptosis: 44; rRNA inh HTS: -57; rRNA inh HTS OD600: -75; rRNA inh HTS RFP: -21

What do the screens show for `CC(=O)c1ccc(N2CCN(S(=O)(=O)c3cc(-c4cc(C)no4)ccc3C(C)C)CC2)cc1`?
Calb FLC: 2; FGF22 binding: inactive; RanGTP-Imp inh: -6.3; T cruzi inh: 53; ALR inh: -2; AF4-AF9 inh: -2.3; Beta apoptosis: 8; rRNA inh HTS: -4; rRNA inh HTS OD600: -2; rRNA inh HTS RFP: 2.6

What do the screens show for `CCOC(=O)c1cc2c(=O)n3ccccc3nc2n(Cc2ccco2)c1=NC(=O)c1cccc(OC)c1`?
Calb FLC: -1; FGF22 binding: inactive; RanGTP-Imp inh: 33*; T cruzi inh: 14; ALR inh: 4; AF4-AF9 inh: -1.1; Beta apoptosis: -5; rRNA inh HTS: -5; rRNA inh HTS OD600: -6; rRNA inh HTS RFP: 1.7

How did Cc1nc(-c2ccc(S(=O)(=O)Nc3cccc(Cl)c3)cc2)co1 do in these assays?
Calb FLC: 4; FGF22 binding: inactive; RanGTP-Imp inh: -0.3; T cruzi inh: 8; ALR inh: -2; AF4-AF9 inh: -0.3; Beta apoptosis: -4; rRNA inh HTS: -1; rRNA inh HTS OD600: 10; rRNA inh HTS RFP: 7.0

Results for CCOc1ccc(N(Cc2ccc(C(=O)O)cc2)S(=O)(=O)c2ccc(C)cc2)cc1 ?
Calb FLC: 13; FGF22 binding: inactive; RanGTP-Imp inh: -4.0; T cruzi inh: 17; ALR inh: 49; AF4-AF9 inh: 1.6; Beta apoptosis: 64; rRNA inh HTS: -2; rRNA inh HTS OD600: -1; rRNA inh HTS RFP: -2.1

Results for Cc1cc(NC(=O)c2ccccc2)n(-c2nc3ccccc3[nH]2)n1 ?
Calb FLC: 20; RanGTP-Imp inh: -2.0; T cruzi inh: 12; ALR inh: -4; AF4-AF9 inh: -0.7; Beta apoptosis: 9; rRNA inh HTS: 24; rRNA inh HTS OD600: 25; rRNA inh HTS RFP: 4.0

What do the screens show for `CC(=O)Nc1ccc(NC(=O)CSc2nnc(-c3ccc4c(c3)OCO4)o2)cc1`?
FGF22 binding: inactive; ALR inh: 1; AF4-AF9 inh: 1.1; Beta apoptosis: 0; rRNA inh HTS: 7; rRNA inh HTS OD600: 6; rRNA inh HTS RFP: -1.8

How did CC(C)CCOCC(O)CCC(=O)NNC(=S)Nc1ccccc1 (stereo not given) do in these assays?
Calb FLC: -5; FGF22 binding: inactive; RanGTP-Imp inh: 0.9; T cruzi inh: -2; ALR inh: 55; AF4-AF9 inh: -2.0; Beta apoptosis: -1; rRNA inh HTS: 10; rRNA inh HTS OD600: 4; rRNA inh HTS RFP: 1.2

Results for CC(=O)c1ccccc1OCC(O)CN1CCN(C(c2ccccc2)c2ccccc2)CC1 (stereo not given) ?
Calb FLC: -16; RanGTP-Imp inh: -2.8; T cruzi inh: 26; ALR inh: -11; Beta apoptosis: 8

Results for CCCCNc1oc(-c2ccc(OC)cc2)nc1S(=O)(=O)c1ccccc1 ?
Calb FLC: 11; FGF22 binding: inactive; RanGTP-Imp inh: -3.5; T cruzi inh: -9; ALR inh: 3; AF4-AF9 inh: 2.6; Beta apoptosis: -3; rRNA inh HTS: -2; rRNA inh HTS OD600: 3; rRNA inh HTS RFP: -0.6

Results for CC(NC(=O)Cn1cnc([N+](=O)[O-])n1)c1ccccc1 (stereo not given) ?
Calb FLC: 8; RanGTP-Imp inh: 2.3; T cruzi inh: 49; ALR inh: -14; Beta apoptosis: -6

Results for O=C(Cn1cnc2ccccc21)Nc1ccc(SC(F)F)cc1 ?
Calb FLC: -5; FGF22 binding: inactive; RanGTP-Imp inh: 1.2; T cruzi inh: -32; ALR inh: 43; AF4-AF9 inh: -2.5; Beta apoptosis: 72; rRNA inh HTS: -55; rRNA inh HTS OD600: -78; rRNA inh HTS RFP: -31

What do the screens show for `COC(=O)C1=C(C)NC(C)=C(C(=O)OC)C1c1ccc2ccccc2n1`?
Calb FLC: -7; RanGTP-Imp inh: -2.0; T cruzi inh: -3; ALR inh: -2; Beta apoptosis: -4

Results for CCCCN(CC)Cc1ccc(CNC(=O)Nc2ccc(OCC)cc2)o1 ?
Calb FLC: -4; FGF22 binding: inactive; RanGTP-Imp inh: 5.0; T cruzi inh: 2; ALR inh: 4; AF4-AF9 inh: 6.9; Beta apoptosis: -5; rRNA inh HTS: 9; rRNA inh HTS OD600: 2; rRNA inh HTS RFP: -9.3

How did CN(C)c1ccc(/C=N/NC(=O)CNC(=O)/C=C/c2ccccc2)cc1 do in these assays?
Calb FLC: -1; FGF22 binding: inactive; RanGTP-Imp inh: 1.3; T cruzi inh: 0; ALR inh: 43; AF4-AF9 inh: -0.8; Beta apoptosis: 0; rRNA inh HTS: -2; rRNA inh HTS OD600: -19; rRNA inh HTS RFP: -1.0

What do the screens show for `O=C(/C=C/c1ccc2c(c1)OCO2)NC1CCCC1`?
Calb FLC: -38; FGF22 binding: inactive; RanGTP-Imp inh: 6.9; T cruzi inh: -8; ALR inh: 33; AF4-AF9 inh: 0.4; Beta apoptosis: -4; rRNA inh HTS: -37; rRNA inh HTS OD600: -60; rRNA inh HTS RFP: 4.9

Results for CCNC(=O)CCc1nc(-c2ccc(C)cc2)no1 ?
Calb FLC: 0; FGF22 binding: inactive; RanGTP-Imp inh: 4.9; T cruzi inh: 8; ALR inh: -7; AF4-AF9 inh: -1.1; Beta apoptosis: 4

How did O=C1CC(C(=O)N(CC2CCCO2)C(C(=O)NC2CCCCC2)c2ccncc2)CS1 (stereo not given) do in these assays?
Calb FLC: 32; RanGTP-Imp inh: 3.4; T cruzi inh: -8; ALR inh: -11; Beta apoptosis: -7

Overlap with the part before: two compounds, followed by the next part.
Results for CCNC(=O)CCc1nc(-c2ccc(C)cc2)no1 ?
Calb FLC: 0; FGF22 binding: inactive; RanGTP-Imp inh: 4.9; T cruzi inh: 8; ALR inh: -7; AF4-AF9 inh: -1.1; Beta apoptosis: 4

How did O=C1CC(C(=O)N(CC2CCCO2)C(C(=O)NC2CCCCC2)c2ccncc2)CS1 (stereo not given) do in these assays?
Calb FLC: 32; RanGTP-Imp inh: 3.4; T cruzi inh: -8; ALR inh: -11; Beta apoptosis: -7

How did Cc1ccc(NC(=S)c2ccc(N(C)C)cc2)cc1 do in these assays?
Calb FLC: -3; RanGTP-Imp inh: -4.9; T cruzi inh: 41; ALR inh: 14; Beta apoptosis: -12

Results for O=S(=O)(NCc1ccncc1)c1ccc(S(=O)(=O)NCC2CCCO2)cc1 (stereo not given) ?
Calb FLC: 5; RanGTP-Imp inh: 4.5; T cruzi inh: -14; ALR inh: -1; AF4-AF9 inh: -35; Beta apoptosis: 21; rRNA inh HTS: 5; rRNA inh HTS OD600: 1; rRNA inh HTS RFP: -0.8

Results for CCN(C(=O)c1nn(-c2ccc(OC)cc2)c(=O)c2c1c1ccccc1n2C)c1ccc(OC)cc1 ?
Calb FLC: 6; FGF22 binding: inactive; RanGTP-Imp inh: -3.0; T cruzi inh: 26; ALR inh: -5; AF4-AF9 inh: -1.2; Beta apoptosis: 4; rRNA inh HTS: 12; rRNA inh HTS OD600: 9; rRNA inh HTS RFP: 0.4

Results for O=C(O)c1ccc(S(=O)(=O)c2ccc3c(c2)C(=O)N(NC(=O)c2ccc(O)cc2)C3=O)cc1 ?
Calb FLC: inconclusive; FGF22 binding: inactive; RanGTP-Imp inh: 3.3; T cruzi inh: -5; ALR inh: -2; AF4-AF9 inh: -1.2; rRNA inh HTS: 14; rRNA inh HTS OD600: 13; rRNA inh HTS RFP: 2.9

What do the screens show for `CCCCc1ccc(N=N/C(C(=O)Nc2cc(OC)c(NC(C)=O)cc2OC)=C(/C)O)cc1`?
Calb FLC: -1; RanGTP-Imp inh: 2.1; T cruzi inh: 37; ALR inh: -14; Beta apoptosis: -3

How did O=C(NC1CCCCC1)C(c1ccncc1)N(CC1CCCO1)C(=O)C(F)(F)F (stereo not given) do in these assays?
Calb FLC: 0; RanGTP-Imp inh: -7.8; T cruzi inh: -14; ALR inh: 0

How did CCOC(=O)c1c(C)c(C(=O)Nc2ccccc2)c(C)n1CC do in these assays?
Calb FLC: -14; RanGTP-Imp inh: 0.2; T cruzi inh: 23; ALR inh: -18; Beta apoptosis: 4

What do the screens show for `COc1cc2[nH]c(=O)n(Cc3ccc(C(=O)NC4CCN(Cc5ccccc5)CC4)cc3)c(=O)c2cc1OC`?
Calb FLC: 1; FGF22 binding: inactive; RanGTP-Imp inh: 6.9; T cruzi inh: 32; ALR inh: 1; AF4-AF9 inh: -1.4; Beta apoptosis: -2; rRNA inh HTS: 5; rRNA inh HTS OD600: -2; rRNA inh HTS RFP: -3.0

How did O=C(CCN1C(=O)c2ccccc2S1(=O)=O)Nc1cc(Cl)ccc1Cl do in these assays?
Calb FLC: 1; FGF22 binding: inactive; RanGTP-Imp inh: 5.1; T cruzi inh: -2; ALR inh: -2; AF4-AF9 inh: -2.4; rRNA inh HTS: 9; rRNA inh HTS OD600: 14; rRNA inh HTS RFP: -2.0

Results for Cc1cc(C(=O)NNC(=O)c2ccccc2F)c2ccccc2n1 ?
FGF22 binding: inactive; ALR inh: 11; AF4-AF9 inh: -5.6; Beta apoptosis: -6

How did Cc1ccc(Nc2nc(N)nc(CN3CCN(c4ccccc4)CC3)n2)cc1Cl do in these assays?
Calb FLC: 31; RanGTP-Imp inh: inconclusive; T cruzi inh: -20; Beta apoptosis: -13

How did COc1ccc(CN=Cc2c(C(F)(F)F)[nH][nH]c2=O)cc1 do in these assays?
Calb FLC: 0; RanGTP-Imp inh: -1.2; T cruzi inh: 1; ALR inh: -2; Beta apoptosis: -5

How did CN(C)S(=O)(=O)c1cccc(NC(=O)c2cncc(Br)c2)c1 do in these assays?
Calb FLC: -4; FGF22 binding: inactive; RanGTP-Imp inh: -3.3; T cruzi inh: 5; ALR inh: -4; AF4-AF9 inh: -8.7; Beta apoptosis: -3; rRNA inh HTS: 3; rRNA inh HTS OD600: 12; rRNA inh HTS RFP: -1.7

Screening data (PubChem BioAssay)

The list is partial. The share of hits here may be higher or lower than overall.
